fixLJ activator: increases Burkholderia fixLJ two-component signaling; hit rate 0.3% among 29,000; B. multivorans fixK-promoter GFP reporter, 18 h; hits give high values; z-score (concentration not given with the values);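 active = replicate mean overnight rise in green fluorescent reporter signal, 3 or more SD over negative controls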;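 also: score is relative to vehicle wells of the plate; 300 nL library stock went into each well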
* marks the source's active call; other numbers are inactive results; & = joins results of further samples.

The opening 2 records, to show the layout:
SMILES | fixLJ activator
CC(C)c1noc(C2CCCN2C(=O)c2ccc(S(N)(=O)=O)cc2)n1 (stereo not drawn) | 0.09
CCOc1ccc(CNCCSc2nnnn2C)cc1 | 0.42

This part in full, previewed entries included:
SMILES | fixLJ activator
CC(C)c1noc(C2CCCN2C(=O)c2ccc(S(N)(=O)=O)cc2)n1 (stereo not drawn) | 0.09
CCOc1ccc(CNCCSc2nnnn2C)cc1 | 0.42
CCCCN(C)CCCNC(=O)CN1C(=O)COc2ccc(S(=O)(=O)N3CCC(C)CC3)cc21 | 0.24
CCc1ccc(NC(=O)C2CCCN(S(=O)(=O)c3cccc4cccnc34)C2)cc1 (stereo not drawn) | -0.35
Cc1ccc2nc(-c3cccc(NC(=O)CSc4ccc(Cl)cc4)c3)oc2c1 | 0.24
CCOC(=O)c1ccc(NC(=O)CN2C(=O)COc3ccc(Cl)cc32)cc1 | -1.98
O=C(CCn1cnnn1)Nc1ccc(F)cc1 | -1.2
Cc1ccc(C)c(N2CCN(C(=O)CN3C(=O)COc4ccc(S(=O)(=O)N5CCCC5)cc43)CC2)c1 | -0.3
COc1ccc(C(C)NC(=O)Cc2c(C)[nH]c(=O)[nH]c2=O)cc1F (stereo not drawn) | -0.79
COc1ccc(-n2c(SCCC(C)C)nc3sc4c(c3c2=O)CC(C(C)C)OC4)cc1 (stereo not drawn) | -0.74
CCC(C)NC(=O)Cn1c(=O)n(CCCCCC(=O)Nc2ccccc2)c(=O)c2sccc21 (stereo not drawn) | -0.46
O=C(c1cncc(N2CCC(O)[C@@](Cc3ccccc3)(C(=O)O)C2)n1)N1CCCC1 (stereo partly drawn) | -0.77
Cc1ccc2oc(=O)c3cc(C(=O)Nc4ccccc4C(N)=O)sc3c2c1 | -1.53
COc1ccc(NC(=O)CCc2c(C)nc3cc(-c4cccc(F)c4)nn3c2C)cc1Cl | -0.22
Cc1ccccc1-c1nc(CS(=O)CC(=O)N2CCN(c3cc(Cl)ccc3C)CC2)c(C)o1 (stereo not drawn) | -0.42
Cc1c(Cl)cccc1NC(=O)C(C)N(c1ccccc1)S(C)(=O)=O (stereo not drawn) | -1.2
CCOC(=O)c1cccc(NC(=O)c2ccc3c(Cl)c4c(nc3c2)CCC4)c1 | 0.06
Cc1cccc(Cn2ncc(C)c2NC(=O)CCc2ccnn2C)c1 | -0.64
CCn1c(N)nc2cc(C(=O)N(C)Cc3ccc4nsnc4c3)cnc21 | 0.23
Cc1cccc(C)c1Oc1ncccc1CNC(=O)c1c(Cl)cnn1C | 0.85
Cc1ccc(S(=O)(=O)Nc2cc3c(cc2N2CCOCC2)n(C)c(=O)n3C)c(C)c1 | -0.81
O=C(Cn1nc(Cc2cccnc2)c2ccccc2c1=O)N1CCN(c2ccc(F)cc2)CC1 | 0.03
CCOC(=O)N1CCc2c(sc3c2c(=O)n(CCc2ccccc2)c(=O)n3Cc2cc(C)ccc2C)C1 | -1.09
CCCCN1CC2(CCCN(C(=O)c3cc(C(F)(F)F)[nH]n3)C2)CCC1=O (stereo not drawn) | -1.63
O=C(c1ccc2c(c1)N(Cc1ccc(F)cc1)CCS2)N1CCN(c2ccccc2)CC1 | 0.28

Following part
SMILES | fixLJ activator
COc1ccc(Cl)cc1NC(=O)c1cn(C2CCCCC2)c(=O)c2c1c1ccccc1n2C | -1.49
CCc1ccc(C2CC(=O)c3c([nH]c(C(=O)OCC4CCCCC4)c3C)C2)cc1 (stereo not drawn) | -0.9
Cc1ccc(-c2noc(CNC(=O)COc3cc(C)c(Br)c(C)c3)n2)cc1 | -0.26
CCc1ccc2c(c1)NC(c1cccs1)=NC(c1ccc(F)cc1)=N2 | 0.63
COc1ccc(C(=O)Nc2nnc(C)s2)cc1 | -0.04
CCCCCCN1CC2(CCN(C(=O)c3n[nH]c(CC)c3C)CC2)OC1=O | -0.08
O=C(c1ccc(F)cc1F)N1CCC(c2noc(-c3ccc(S(=O)(=O)N4CCCC4)cc3)n2)CC1 | -1.23
CCOc1ccnc(NC2CCCN(c3ncccn3)C2)n1 (stereo not drawn) | 0.45
CCCOCc1cc(CN2CCN(c3ccccc3OC)CC2)c(O)c2ncccc12 | 1.77
CC(C)SCC(=O)N1CCN(Cc2ccccc2)C2CS(=O)(=O)CC21 (stereo not drawn) | -1.51
O=C1Nc2ccccc2Oc2cc(Oc3cccc(Cl)c3)ccc21 | -4.95
CCOc1ccc(CCNC(=O)c2csc3c2CCCCC3)cc1 | -0.73
O=C(Nc1ccccc1F)c1ccc2c(Cl)c3c(nc2c1)CCC3 | -1.38
CS(=O)(=O)CCN1CCCC(c2ccnn2CC(=O)O)C1 (stereo not drawn) | 0.22
Cc1ccccc1NS(=O)(=O)c1ccc(Br)s1 | 0.68
CCN1CC2(CCC1=O)CCN(C(=O)c1ccc(C)cc1O)CC2 | -1.67
O=C(COc1ccc(Br)cc1Cl)Nc1ncn[nH]1 | -0.89
Cc1ccccc1Cn1nc(C)c(NC(=O)c2cc(-c3ccc(F)cc3)on2)c1C | -0.54
O=C(CCCn1c(=O)c2ccccc2n(Cc2ccc(F)cc2Cl)c1=O)NCCc1ccc(Cl)cc1 | -1.89
Cc1c(C(=O)N(Cc2cccc(F)c2)C2CCS(=O)(=O)C2)oc2cc(Br)ccc12 (stereo not drawn) | -0.35
CN[C@@H]1[C@@H](O[C@H]2O[C@H](CO)[C@@H](N)[C@H](O)[C@H]2O)O[C@H]2C[C@@H](N)[C@H](O[C@H]3[C@H](O)[C@@H](O)[C@H](N)C[C@@H]3N)O[C@@H]2[C@@H]1O | -2.43
COc1ccc(-c2nc3c(c(SCC(=O)Nc4ccc(C(=O)O)cc4)n2)Cc2ccccc2O3)cc1 | -2.41
Cc1ccc(C(=O)N2CCCCC2CCN2CCCCC2)cc1 (stereo not drawn) | -0.72
CN(Cc1ccc(-c2ccccc2)cc1)C(=O)c1cc2n(n1)CC(O)CNC2=O (stereo not drawn) | -0.56
CC1(C)CC(NC(=O)c2cc3n(n2)CC(O)CNC3=O)CC(C)(C)C1 (stereo not drawn) | -0.43

Other records
SMILES | fixLJ activator
COc1ccc(-c2cc3nc(C)c(CCC(=O)N4CCN(c5cccc(Cl)c5)CC4)c(C)n3n2)c(OC)c1 | 0.47
Cc1cccc(NC(=O)Cn2c(=O)n(CC3CCC(C(=O)NCCc4ccccc4)CC3)c(=O)c3ccccc32)c1 (stereo not drawn) | 0.19
CCN(Cc1nccn1C)C(=O)c1cccc(-c2cc(C(F)(F)F)[nH]n2)c1 | -0.36
C=CCOc1ccc(Cl)cc1CN1CC(O)C(Cc2cc(C)[nH]n2)C1 (stereo not drawn) | 1.56
CCOC(=O)CC(NC(=O)Cn1nnc(-c2ccccc2F)n1)c1ccccc1Cl (stereo not drawn) | -3.11
Cc1ccc(N2CCN(S(=O)(=O)c3ccc(Cl)c4ccccc34)CC2)c(C)c1 | -2.49
Cc1cccc(OCCn2nnc3sc4c(c3c2=O)CCCC4)c1 | 0.23
Cc1ccc(-c2cnn(CC(=O)O)c2)c(-n2nc(C)cc2C)c1 | -1.37
COCCc1noc(C2CCCCN2C(=O)c2onc3ncccc23)n1 (stereo not drawn) | -0.5
Cc1cc2nc(-c3ccc(NC(=O)c4ccc(OCC(C)C)cc4)cc3)oc2cc1C | -0.92
CCOCCCNC(=O)c1c(NC(=O)c2nc(SC)ncc2Cl)sc2c1CCCC2 | -4.32
CCc1ccc(NC(=O)CN2C(=O)C(c3ccccc3)=NC23CCCCCC3)cc1 | -1.83
CCOC(=O)c1sc(NC(=O)c2nc3nc(C)cc(C(F)F)n3n2)c(C(=O)OC)c1C | -1
O=C(NCc1ccc2c(c1)OCO2)c1ccc2c(c1)N(Cc1ccc(F)cc1)C(=O)c1ccccc1S2=O (stereo not drawn) | -2.13
COc1cc2c(=O)c(C(=O)c3ccc(F)cc3)cn(Cc3cccc(F)c3)c2cc1OC | -0.5
Cc1ccc2oc(C(=O)Nc3c(C(=O)c4ccc(C)c(F)c4)oc4ccccc34)cc(=O)c2c1 | -1.44
Cc1cccn2c(=O)c(/C=C(\C#N)c3nc4ccccc4n3C)c(Oc3ccc(Cl)cc3)nc12 | -2.05
Fc1ccc(-c2nnc(CN3CCN(c4ccccn4)CC3)o2)cc1 | -0.67
Cc1ccc(OCC(=O)N(Cc2ccco2)C2CCS(=O)(=O)C2)cc1 (stereo not drawn) | 0.38
CCOC(=O)C1CCCN(C(=O)c2cc3c(Cl)nc4ccccc4c3s2)C1 (stereo not drawn) | -1.7
CN1CCC[C@]2(CO)CCN(C(=O)COc3ccccc3)C[C@@H]12 | -0.95
CCOc1ccc(C(=O)N(Cc2nc(-c3cccc(C)c3)no2)C(C)C)cc1 | 0.11
COc1ccc(NC(=O)CSc2nc(-c3ccccc3)cc(-c3cc(OC)c(OC)c(OC)c3)c2C#N)c(OC)c1 | -0.34
CCn1c(=O)cc(SCC(=O)N2CCN(c3cc(C)ccc3C)CC2)c2ccccc21 | 0.64
CCOC(=O)c1nnc2c(-c3ccc(Cl)cc3)c(C)nn2c1N | -0.09

Not a retest: 13 of the compounds above.
SMILES | fixLJ activator
Cc1cccc(Cn2ncc(C)c2NC(=O)CCc2ccnn2C)c1 | -0.64
CCn1c(N)nc2cc(C(=O)N(C)Cc3ccc4nsnc4c3)cnc21 | 0.23
Cc1cccc(C)c1Oc1ncccc1CNC(=O)c1c(Cl)cnn1C | 0.85
Cc1ccc(S(=O)(=O)Nc2cc3c(cc2N2CCOCC2)n(C)c(=O)n3C)c(C)c1 | -0.81
O=C(Cn1nc(Cc2cccnc2)c2ccccc2c1=O)N1CCN(c2ccc(F)cc2)CC1 | 0.03
CCOC(=O)N1CCc2c(sc3c2c(=O)n(CCc2ccccc2)c(=O)n3Cc2cc(C)ccc2C)C1 | -1.09
CCCCN1CC2(CCCN(C(=O)c3cc(C(F)(F)F)[nH]n3)C2)CCC1=O (stereo not drawn) | -1.63
O=C(c1ccc2c(c1)N(Cc1ccc(F)cc1)CCS2)N1CCN(c2ccccc2)CC1 | 0.28
COc1ccc(Cl)cc1NC(=O)c1cn(C2CCCCC2)c(=O)c2c1c1ccccc1n2C | -1.49
CCc1ccc(C2CC(=O)c3c([nH]c(C(=O)OCC4CCCCC4)c3C)C2)cc1 (stereo not drawn) | -0.9
Cc1ccc(-c2noc(CNC(=O)COc3cc(C)c(Br)c(C)c3)n2)cc1 | -0.26
CCc1ccc2c(c1)NC(c1cccs1)=NC(c1ccc(F)cc1)=N2 | 0.63
COc1ccc(C(=O)Nc2nnc(C)s2)cc1 | -0.04

Going on with the list.
SMILES | fixLJ activator
Cc1ccc(NS(=O)(=O)c2ccc3c(c2)CCN3C(=O)C2CC2)c(C)c1 | -1.13
N#C/C(=C\c1ccc(Cl)cc1)c1nc2ccccc2[nH]1 | 0.71
Cc1cc(C)cc(Nc2cc(C(=O)NCc3ccccc3)c3ccccc3n2)c1 | 1.11
CCC(C(=O)OC)n1cnc2c(cnn2-c2ccc(F)cc2)c1=O (stereo not drawn) | 0.2
O=C(NCCc1ccccc1)c1ccc(CSc2nc3ccncc3n2Cc2ccccc2)cc1 | -5.2
COc1ccc(NC(=O)CC2C(=O)N(c3ccc(F)cc3)C(=O)N2Cc2ccc3c(c2)OCO3)cc1 (stereo not drawn) | -0.91
O=C(NCCCN1CCN(c2ccc(F)cc2)CC1)c1cc2c(Cl)nc3ccccc3c2s1 | -0.05
N#C/C(=C\c1ccc(Br)cc1)c1nc(-c2cc3cc(Br)ccc3oc2=O)cs1 | 0.75
COc1ccc(CC(=O)Nc2c(C(=O)Nc3ccc(F)cc3)oc3ccccc23)cc1OC | -1.81
CCC(CC)C(=O)Nc1ccc(OCc2cc(=O)n3c4c(sc3n2)CCCC4)cc1 | 0.48
CCOc1ccc(/C=C(\C#N)C(=O)Nc2sc3c(c2C(=O)OC)C(C(=O)OC)CC3)cc1OC (stereo not drawn) | -0.55
Cc1nn2cc(CNC(=O)c3cn[nH]c3-c3ccccc3)nc2s1 | -2.43
COc1ccc(NC(=O)CSc2oc(-c3ccc(C)cc3)nc2S(=O)(=O)c2ccc(C)cc2)c(OC)c1 | -1.36
Cc1ccc(C2=NC(c3ccc(F)cc3)=Nc3ccc(C)cc3N2)cc1 | -0.19
Cc1ccc(OCC(=O)NC(c2ccc3c(c2)CCO3)C2CC(O)C2)cc1 (stereo not drawn) | 0.72
CCc1cnc(C)nc1N1CCCC2(CCC(=O)N(CCCOC)C2)C1 (stereo not drawn) | 0.56
O=C(NCCN1C(=O)CC2NCCC21)c1ccccc1Cl (stereo not drawn) | -0.35
Cc1ccc(NC(=O)C2CCCN(S(=O)(=O)c3cccc4nsnc34)C2)c(C)c1 (stereo not drawn) | -0.78
COc1ccc(Nc2c(-c3cccc(O)c3)nc3cnccn23)cc1 | -1.42
COc1cc(C2c3c(-c4cc(C)ccc4O)n[nH]c3C(=O)N2Cc2ccco2)cc(OC)c1OC (stereo not drawn) | -2.89
Cc1ccc(NC(=O)CSc2nnc3scc(-c4ccc(Cl)cc4)n23)cc1 | -2.68
Cc1cc2cc(NC(=O)N3CCC(Oc4ncccn4)CC3)ccc2o1 | -1.11
Cc1ccc(NC(=O)c2ccc(Cl)cc2Cl)c(C(=O)c2ccccc2)c1 | 1.1
O=C(Nc1ccc(Br)cc1)C1CCCN1S(=O)(=O)c1ccc(F)cc1 (stereo not drawn) | -0.85
O=C1C(=O)c2ccccc2C(O)=C1C1CCC(c2ccc(Cl)cc2)CC1 (stereo not drawn) | -0.92&-1

More compounds
SMILES | fixLJ activator
Cc1c(Cl)cccc1NC(=O)C(C)n1nnc2sc3c(c2c1=O)CCCC3 (stereo not drawn) | -0.3
CNC(=O)CCc1ccccc1NC(=O)c1cccc(S(C)(=O)=O)c1 | 0.37
CCCN(CCC)C(=O)c1c[nH]c2ccc(S(=O)(=O)Nc3cc(C)cc(C)c3)cc2c1=O | 0.38
Clc1ccc(CNc2nc3ccccc3c3nc(-c4cccnc4)nn23)cc1 | -1.14
CCOc1cc(C2Sc3ccccc3NC3=C2C(=O)c2ccccc23)ccc1O (stereo not drawn) | 1.69
Cc1cc(C(=O)N(Cc2ccccc2)Cc2scnc2C)on1 | 1.2
COc1cc(C2c3c(-c4c(C)cc(C)cc4O)n[nH]c3C(=O)N2CCCOC(C)C)cc(OC)c1OC (stereo not drawn) | -0.19
CCCC(=O)N1CCC(c2nnc(Cn3ccnc3)n2C2CC2)CC1 | -2.76

High-throughput results deposited in PubChem BioAssay by ICCB-Longwood Screening Facility, Harvard Medical School.

This is a subset; rates above refer to the full screens.
